# LANA-H2B inh: blocks KSHV LANA binding to histone H2A/H2B. Q9QR71. cell-free LANA-H2A/H2B peptide, fluorescence polarization. inhibition, % (no concentration beside the values). 320,000 tested, 0.6% active. AID 2629; in the data active means inhibition mostly above about 10%, no sharp cut-off; inactive means mostly below about 6.7%;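 further: stock transfer was 7.5 nL into about 10 µL; 0% = median of vehicle wells and 100% = median of positive control wells; one replicate is shown; the record names a cut of 25% in any replicate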
# ALR H2O2 inh: human ALR oxidase inhibition via reduced H2O2. P55789. purified ALR, DTT oxidation, H2O2 HRP-luminol luminescence. inhibition, % (concentration not given with the values). 290,000 tested, 3.8% active. AID 485317;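 active means mean and each replicate at 75% or more; inconclusive means only one of the two met; inactive means neither met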;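 further: stock transfer was 7.5 nL into about 7.5 µL; 0% = neutral wells and 100% = wells with inactivated enzyme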
# Vif A3G: inhibitors of Vif binding to APOBEC3G peptide, primary screen, biochemical, TR-FRET, GST-Vif 1-94, biotin-A3G peptide, dose response retest (AID 1117319); TR-FRET GST-Vif / biotin-A3G peptide binding; higher % means a stronger effect; test concentration not given here; strong numbers were not always called active; one-dose inhibition, %; IC50 in µM for titrated hits; 260,000 tested, 0.57% active;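 active means above the screen mean plus three standard deviations and confirmed in dose response; inconclusive means results disagree or hit not tested in dose response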;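 further: Vif residues 1-94 fused to GST binding biotinylated APOBEC3G peptide 110-148; 0% = full assay without inhibitor and 100% = GST in place of GST-Vif; retest series ran down from 100 µM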
# B2AR ag: agonists of human beta-2 adrenergic receptor inducing internalization | response, % (concentration not given with the values) | Am2.2-beta2AR cells, FAP receptor internalization, flow cytometry; reference of the scale not given here | P07550 | 340,000 tested, 0.43% active | AID 504454;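 active means response above a set limit, near 3 SD of response in nonfluorescent compounds, cut at about 42% in these data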;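 further: stock transfer was 100 nL into about 11 µL; a reference agonist was the positive control; negative values mostly stem from fluorescent compounds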
# Target sequence (P07550 whole entry, looked up): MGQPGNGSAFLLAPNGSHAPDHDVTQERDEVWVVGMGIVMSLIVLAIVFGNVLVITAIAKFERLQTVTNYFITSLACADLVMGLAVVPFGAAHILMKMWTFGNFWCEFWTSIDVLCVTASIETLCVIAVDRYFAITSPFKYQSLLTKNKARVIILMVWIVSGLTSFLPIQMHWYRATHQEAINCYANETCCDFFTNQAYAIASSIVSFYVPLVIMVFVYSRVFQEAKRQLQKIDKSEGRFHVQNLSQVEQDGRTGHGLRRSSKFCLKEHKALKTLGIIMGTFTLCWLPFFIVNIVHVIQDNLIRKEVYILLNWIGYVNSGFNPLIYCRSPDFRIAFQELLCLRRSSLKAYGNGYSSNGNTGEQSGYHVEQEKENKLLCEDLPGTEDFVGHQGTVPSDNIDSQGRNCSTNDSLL
# Calb FLC: affects C. albicans growth with fluconazole; C. albicans CaCi-2 (fluconazole-resistant clinical isolate) + fluconazole, Alamar Blue growth, 48 h; 300,000 tested, 0.57% active; AID 1979; growth inhibition, % (concentration not given with the values);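 active means most replicates above 75%; inconclusive means exactly half above 75%; inactive means most below 75%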;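 further: all wells also contain fluconazole at 8 µg/ml as a sub-toxic cotreatment; 0% = median of DMSO wells and 100% = median of geldanamycin control wells; wells of about 8 µL received 7.5 nL stock; the first replicate is given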
# RanGTP-Impb inh: inhibitors of RanGTP-importin-beta interaction, primary screen, biochemical, FRET, CFP-Ran, YFP-importin-beta, homogeneous; cell-free CFP-Ran/YFP-importin-beta FRET ratio; inhibition, % (test concentration not listed); 300,000 tested, 1.1% active; AID 2216;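 active means most replicates above 15%; inconclusive means exactly half above 15%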;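 further: 0% = DMSO wells and 100% = Ran loaded with GDP instead of GTP; wells of about 40 µL received 100 nL stock; the first replicate is given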
# HNF4A DNA FP: change in binding of human HNF4 alpha to DNA | P41235 | HNF4a-FITC DNA binding, fluorescence polarization, 1 h | activity change, % at 10 µM | 360,000 tested, 0.3% active | AID 1224865; in the data active means activity change above about 30%, passing the limit was not always enough;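 further: controls were the assay level and a saturating level of protein; the project sought stronger binding though the title names inhibitors; some compounds called inactive have numbers as strong as hits; positive values seem to mean higher polarization but the record does not say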
# Target sequence (P41235 whole entry, looked up): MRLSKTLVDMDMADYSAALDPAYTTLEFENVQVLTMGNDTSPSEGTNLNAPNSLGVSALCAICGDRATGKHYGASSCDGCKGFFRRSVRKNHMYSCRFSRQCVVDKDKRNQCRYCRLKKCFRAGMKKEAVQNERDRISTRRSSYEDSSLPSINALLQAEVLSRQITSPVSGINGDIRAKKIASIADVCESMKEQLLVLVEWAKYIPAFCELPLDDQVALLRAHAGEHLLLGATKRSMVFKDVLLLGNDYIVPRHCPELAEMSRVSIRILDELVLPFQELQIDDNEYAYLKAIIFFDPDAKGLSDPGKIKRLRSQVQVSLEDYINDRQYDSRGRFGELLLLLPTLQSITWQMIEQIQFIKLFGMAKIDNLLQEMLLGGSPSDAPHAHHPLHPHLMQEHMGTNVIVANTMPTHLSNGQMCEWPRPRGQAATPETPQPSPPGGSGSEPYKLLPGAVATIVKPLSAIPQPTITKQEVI
# An asterisk follows results filed as active; ? = inconclusive; . = no result given; & = joins results of further samples.
1: Cc1ccc(C(C(=O)NCc2ccccc2)N(C(=O)c2csnn2)c2cccc3ccccc23)o1 (centres undefined)
2: COc1ccc(C(C)=O)cc1CSc1nc2ccccc2c(=O)n1-c1ccccc1
3: O=C(C1CCN(S(=O)(=O)c2ccccc2)CC1)N1CCCCCC1
4: Cc1c(C(=O)NCCSCc2ccco2)cccc1[N+](=O)[O-]
5: C/C(=N\OCC(=O)Nc1c(C)cc(C)cc1C)c1ccc2c(c1)OCCO2
6: O=C(CSc1nnc(-c2ccccc2)c(-c2ccccc2)n1)NC1CCS(=O)(=O)C1 (centres undefined)
screen / no.	1	2	3	4	5	6
ALR H2O2 inh	.	.	-12	.	-5	0
LANA-H2B inh	0.6	-0.3	-8.9	-2.0	4.5	-2.8
Vif A3G	2%	.	.	.	.	-3%
HNF4A DNA FP	2.4	-0.4	3.3	-9.4	-0.2	-0.6
Calb FLC	42	-5	30	?	4	-6
B2AR ag	3	5	2	-1	2	-6
RanGTP-Impb inh	4.9	3.6	-1.9	4.5	-1.4	4.7

7: COc1ccc(OCc2cc(C(=O)NCCCc3ccccc3)no2)c(Cl)c1
8: COC(=O)CN1C(=O)N/C(=C/c2ccc(OC)cc2)C1=O
9: COc1ccc(/C=C(\NC(=O)c2ccccc2)C(=O)N2CCN(C)CC2)cc1
10: COc1ccc2oc(C(=O)c3ccccc3)c(NC(=O)CN3CCN(C)CC3)c2c1
11: O=c1c2cc(-c3ccccc3)sc2nc2n1N=C(c1cccs1)CS2
12: O=C(c1ccc2ccccc2c1)N1CCN(c2ccc(C(F)(F)F)cn2)CC1
screen / no.	7	8	9	10	11	12
ALR H2O2 inh	-4	5	.	-3	-6	1
LANA-H2B inh	2.4	2.6	4.8	-6.1	3.1	-2.7
Vif A3G	6%	31%	.	6%&2%	.	-13%
HNF4A DNA FP	0.5	-5.8	0.5	1.2	0.2	-3.5
Calb FLC	-23	-1	-12	3	-6	4
B2AR ag	-5	3	-3	20	-6	3
RanGTP-Impb inh	0.9	-1.8	0.9	3.8	2.2	?

# 4 of the compounds above, field by field:
4: Cc1c(C(=O)NCCSCc2ccco2)cccc1[N+](=O)[O-]
  ALR H2O2 inh: .	LANA-H2B inh: -2.0	Vif A3G: .	HNF4A DNA FP: -9.4	Calb FLC: ?	B2AR ag: -1	RanGTP-Impb inh: 4.5

5: C/C(=N\OCC(=O)Nc1c(C)cc(C)cc1C)c1ccc2c(c1)OCCO2
  ALR H2O2 inh: -5	LANA-H2B inh: 4.5	Vif A3G: .	HNF4A DNA FP: -0.2	Calb FLC: 4	B2AR ag: 2	RanGTP-Impb inh: -1.4

6: O=C(CSc1nnc(-c2ccccc2)c(-c2ccccc2)n1)NC1CCS(=O)(=O)C1 (centres undefined)
  ALR H2O2 inh: 0	LANA-H2B inh: -2.8	Vif A3G: -3%	HNF4A DNA FP: -0.6	Calb FLC: -6	B2AR ag: -6	RanGTP-Impb inh: 4.7

7: COc1ccc(OCc2cc(C(=O)NCCCc3ccccc3)no2)c(Cl)c1
  ALR H2O2 inh: -4	LANA-H2B inh: 2.4	Vif A3G: 6%	HNF4A DNA FP: 0.5	Calb FLC: -23	B2AR ag: -5	RanGTP-Impb inh: 0.9

# Continued.
13: Cc1cc(NC(=O)CSc2nnc(-c3ccoc3C)n2N)no1
14: O=C(NCc1ccccn1)c1ccc(NS(=O)(=O)c2cccc(Cl)c2)cc1
15: COc1ccccc1-c1ccc(=O)n(CC(=O)NCc2ccc3c(c2)OCO3)n1
16: Cc1ccc(OCCCn2c(CO)nc3ccccc32)cc1
17: Cc1ccsc1C(=O)OCC(=O)Nc1ccc(Cl)cc1C(F)(F)F
18: CNC(=O)COC(=O)c1ccccc1Nc1ccccc1
screen / no.	13	14	15	16	17	18
ALR H2O2 inh	26	-1	-6	-4	-4	16
LANA-H2B inh	-0.3	38*	2.8	2.1	-3.7	-1.3
Vif A3G	>100µM*	.	?	?	.	-3%
HNF4A DNA FP	3.9	0.3	-2.9	3.2	-4.7	2.4
Calb FLC	-18	8	9	-8	9	-4
B2AR ag	2	-3	3	4	-1	-2
RanGTP-Impb inh	-2.3	1.5	-1.4	0.3	-1.0	-1.4

19: CC(=O)c1cccc(NC(=O)Cc2cccs2)c1
20: COc1ccc(Nc2nc(-c3cc4cccc(OC)c4oc3=O)cs2)cc1
21: CCCN1C(=O)C(O)(CC(=O)c2cccc(OC)c2)c2ccccc21 (centres undefined)
22: COc1ccccc1OCCNC(=O)CCNS(=O)(=O)c1ccc(C)cc1
23: O=C(Nc1cccc(S(=O)(=O)NC2=NCCC2)c1)c1cc(-c2ccccn2)nc2ccccc12
24: O=C(CN1C2=NCCN2c2ccccc21)c1ccc(Br)cc1
screen / no.	19	20	21	22	23	24
ALR H2O2 inh	.	-5	-3	.	-7	-19
LANA-H2B inh	.	4.9	2.8	.	2.9	1.0
Vif A3G	18%	?	5%	4%	-2%	?
HNF4A DNA FP	12	-4.2	2.2	-0.9	0.7	-1.9
Calb FLC	-13	24	-25	.	-8	-67
B2AR ag	6	13	0	3	-3	4
RanGTP-Impb inh	-1.3	-0.2	1.6	.	3.0	-2.1

25: CON(C)c1nc(OCC#N)nc(N(C)C)n1
26: Cc1cccc(NC(=O)CSc2nnc(CNC(=O)c3ccco3)o2)c1
27: COc1ccc(NC(C)=O)cc1NC(C)C(=O)Nc1ccc(F)c(F)c1F (centres undefined)
28: CNC(=O)c1cnn(-c2nc(-c3ccc(OC)cc3)cs2)c1C(F)(F)F
29: CC(C)CC(=O)N1CCN(C(=O)c2ccco2)CC1
30: CCOc1ccccc1N(CC(=O)N1CCC(C(N)=O)CC1)S(=O)(=O)c1ccc(SC)cc1
screen / no.	25	26	27	28	29	30
ALR H2O2 inh	-3	-2	19	-4	-1	-4
LANA-H2B inh	6.8	-3.0	-2.2	-3.0	1.2	2.6
Vif A3G	-2%	.	4%	-27%	-3%	.
HNF4A DNA FP	-1.3	2.9	1.7	1.8	0.5	0.9
Calb FLC	0	-2	-4	-5	-14	6
B2AR ag	-5	-4	1	22	6	-7
RanGTP-Impb inh	-1.1	21	?	4.2	1.4	1.1

31: COc1ccccc1CCNC(=O)C(=O)Nc1cc2c3c(c1)C(C)C(=O)N3CCC2 (centres undefined)
32: COc1ccc(NC(=O)C(C)NS(=O)(=O)c2ccccc2)cc1Cl (centres undefined)
33: Cc1ccc(S(=O)(=O)N2CCN(C(=O)c3cc4c(s3)CCC(C)C4)CC2)cc1 (centres undefined)
34: Cc1ccn(CC(=O)N2CCCC(C(=O)c3cccc4ccccc34)C2)n1 (centres undefined)
35: COc1ccc(N2CCN(CC(O)COCCOc3ccc(Br)cc3)CC2)cc1 (centres undefined)
36: CC(O)c1cccc(N=Cc2ccc3ccccc3c2O)c1 (centres undefined)
screen / no.	31	32	33	34	35	36
ALR H2O2 inh	1	-11	.	5	97*	-69
LANA-H2B inh	-0.1	-1.4	.	-2.6	3.9	-0.3
Vif A3G	-7%	-2%	-4%	-11%	?	3%
HNF4A DNA FP	-2.2	-0.9	0.4	1.3	1.7	9.3
Calb FLC	-7	?	.	-7	6	19
B2AR ag	3	10	-2	8	0	7
RanGTP-Impb inh	-2.6	4.6	.	1.6	-1.6	7.8

37: CC(NC(=O)/C(C#N)=C1\N=C(NC(=O)c2ccco2)c2ccccc21)c1ccccc1 (centres undefined)
38: O=C(NCc1ccco1)c1sc2ccccc2c1Cl
39: NC(=S)NNC(=O)c1cccc(Cl)c1
40: COc1ccccc1-n1cnnc1SCC(=O)Nc1nc(C)c(Cl)cc1Cl
41: O=C(CCC(=O)OCC(=O)c1ccc(-c2ccccc2)cc1)Nc1cccc2cccnc12
42: CC(=O)Nc1nonc1NC(=O)CSC1=NCCS1
screen / no.	37	38	39	40	41	42
ALR H2O2 inh	-8	-6	40	-3	3	13
LANA-H2B inh	-2.6	9.2	-2.7	0.2	-3.1	-2.8
Vif A3G	-6%	-1%	.	1%	-6%	79%
HNF4A DNA FP	74*	-0.3	-0.5	1.2	-4.0	26
Calb FLC	10	?	-17	-6	0	6
B2AR ag	-129	-4	-7	-5	-5	1
RanGTP-Impb inh	-1.7	2.8	-2.9	0.7	1.4	2.3

43: CC(C)CC(=O)NN(C)c1nc(-c2ccccc2)nnc1C(F)(F)F
44: Cc1cc(S(=O)(=O)c2cc3ccc(O)c(C)c3oc2=O)ccc1F
45: O=C(COc1ccc([N+](=O)[O-])cc1)NCCc1nc2ccccc2[nH]1
46: CCO[C@H]1OC(C(=O)N2CCN(Cc3ccc4c(c3)OCO4)CC2)=C[C@@H](c2cn(C(C)=O)c3ccccc23)[C@@H]1CCCO
47: O=C(CSc1nnnn1-c1cccc(O)c1)NC1CC1
48: Cc1ccc(C(=O)OCC2OC3OC(C)(C)OC3C2O)cc1 (centres undefined)
screen / no.	43	44	45	46	47	48
ALR H2O2 inh	-3	.	-2	-1	-6	.
LANA-H2B inh	-0.5	-1.8	4.1	-0.5	-7.2	.
Vif A3G	0%	2%	-11%	-10%	.	-4%
HNF4A DNA FP	-4.8	-19	2.4	-3.5	-3.4	4.9
Calb FLC	-46	-1	-10	5	4	-12
B2AR ag	-4	6	-6	-6	10	-4
RanGTP-Impb inh	-2.3	132*	0.0	-4.3	3.0	1.5

49: O=C1c2ccccc2C2(c3ccccc3)NCCN12 (centres undefined)
50: Cc1cc(C(=O)N/N=C/c2ccc(Br)o2)n[nH]1
51: CN(C(=O)c1ccoc1)c1ccc2ccccc2c1
52: COc1ccc(N(C)S(=O)(=O)c2cccc(C(=O)NC3CCCC(C)C3C)c2)cc1 (centres undefined)
53: Cc1ccccc1-c1nnc(SCC(=O)Nc2cccc(C)c2C)o1
54: Cc1ccc(NC(=O)c2ccc(NCCCN3CCC(C)CC3)c([N+](=O)[O-])c2)c(C)c1
55: CCC(NC(=O)c1ccccc1O)c1ccccc1 (centres undefined)
56: COc1cc(/C=N/n2c(C)n[nH]c2=S)ccc1OCc1ccc(F)cc1
screen / no.	49	50	51	52	53	54	55	56
ALR H2O2 inh	-7	-14	-13	-6	-3	0	.	.
LANA-H2B inh	6.8	-3.2	4.8	-4.1	3.4	8.2	1.6	2.5
Vif A3G	16%	.	.	4%	25%	-11%	-2%	-2%
HNF4A DNA FP	2.1	-2.6	0.6	1.0	0.1	-0.4	-0.5	0.7
Calb FLC	-8	1	5	5	6	-9	-3	10
B2AR ag	2	3	4	13	-3	3	1	2
RanGTP-Impb inh	-0.4	3.9	-1.8	-0.5	5.9	-1.6	4.9	-0.1

# Structures shown so far that contain two or more sulfur atoms (five):
6: O=C(CSc1nnc(-c2ccccc2)c(-c2ccccc2)n1)NC1CCS(=O)(=O)C1 (centres undefined)
11: O=c1c2cc(-c3ccccc3)sc2nc2n1N=C(c1cccs1)CS2
30: CCOc1ccccc1N(CC(=O)N1CCC(C(N)=O)CC1)S(=O)(=O)c1ccc(SC)cc1
33: Cc1ccc(S(=O)(=O)N2CCN(C(=O)c3cc4c(s3)CCC(C)C4)CC2)cc1 (centres undefined)
42: CC(=O)Nc1nonc1NC(=O)CSC1=NCCS1
screen / no.	6	11	30	33	42
ALR H2O2 inh	0	-6	-4	.	13
LANA-H2B inh	-2.8	3.1	2.6	.	-2.8
Vif A3G	-3%	.	.	-4%	79%
HNF4A DNA FP	-0.6	0.2	0.9	0.4	26
Calb FLC	-6	-6	6	.	6
B2AR ag	-6	-6	-7	-2	1
RanGTP-Impb inh	4.7	2.2	1.1	.	2.3
